# Source: PubChem
# miR-21 reporter: qHTS Assay for Modulators of miRNAs and/orActivators of miR-21. HeLa miR-21 FLuc reporter, luciferase, 48 h. Potency, µM (titrated, usually from 38.3 µM), for inactives: top-dose reporter change, positive = more light. 340,000 tested, under 10 active. AID 2288, 2010; active = well fitted rising curve with a large enough effect; inconclusive = small, poorly fitted or top-dose-only effect; inactive = no such curve, though single readings can be large or run the other way;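 further: % of control where 0% means no effect; miR-21 action dims this reporter so a rising signal means less miR-21 action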
#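 HeLa cells stably expressing CMV-driven firefly luciferase with a downstream miR-21 binding sequence, endogenously expressing miR-21, were treated with titrations (up to about 40uM final) for 48 hours at 37 degree Celsius. Luciferase luminescence was read after lysis.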
# Starred values were filed as active, the others as inactive; ? = inconclusive; [ ] = remark or other dose. These rows are one share of the data, so the mix of outcomes need not match the whole.
miR-21 reporter | SMILES
-4% | CCc1cccc(NC(=O)c2c(C)oc3nc(C)nc(N4CCCC4)c23)c1
14% | COc1ccc(C(=O)c2cn(Cc3ccccc3)c3ccccc3c2=O)cc1OC
12% | COc1ccc(S(=O)(=O)NCCS(=O)(=O)N2CCN(c3ccccc3)CC2)cc1OC
? | Cc1ccc(CS(=O)(=O)c2ncc(Cl)c(C(=O)Nc3nc4ccc(F)cc4s3)n2)cc1
2% | COc1ccc(N2C(=O)CS(=O)(=O)C23C(=O)N(Cc2ccccc2)c2ccccc23)cc1 (stereo not drawn)
? | CCCCc1ccc(C(=O)Nc2ccc3nc(N(CC)CC)cc(C)c3c2)cc1
-6% | CCc1ccc(N(CC)C(=O)Cn2c(=O)oc3ccccc32)cc1
-4% | CCOc1ccc(NC(=O)Cn2c(=O)n(Cc3ccc(C(=O)NCc4ccc5c(c4)OCO5)cc3)c(=O)c3ccccc32)cc1
-7% | COc1ccccc1CNC(=O)Cn1ncc2c(C)n(Cc3ccccc3Cl)c(C)c2c1=O
0% | COc1ccc(NC(=O)CN2CCN(Cc3ccccc3Cl)S2(=O)=O)cc1Cl
-7% | COC(=O)c1ccccc1NC(=O)CN1C(=O)COc2ccccc21
-2% | Cc1cccc(NC(=O)CN2C(=O)c3cccc4cccc2c34)c1C
26% | Cc1cc(C)cc(NC(=O)Cc2noc3ccccc23)c1
5% | COc1cc(NC(=O)CSc2nc3ncccc3o2)cc(OC)c1
1% | Cc1cccc(-n2c3nc(=O)n(C)c(=O)c-3cc3c(Cl)cccc32)c1C
-10% | CC(C)(C)C(=O)N1CCN(c2nc3c(F)cccc3s2)CC1
0% | COc1cccc(C(=O)c2sc(Nc3ccc(C)cc3C)c(S(=O)(=O)c3ccccc3)c2N)c1
2% | COc1ccc(N2CCN(C(=O)Cn3c(-c4cccs4)cc4ccccc43)CC2)cc1
-1% | Cc1ccc(C(=O)c2cn(Cc3cccc(C)c3)c3nc(C)ccc3c2=O)cc1
0% | CCn1c(=O)n(-c2ccc(F)c(Cl)c2)c(=O)c2c3c(sc21)CN(C(C)=O)CC3
10% | CN(C(=O)CSc1nc2ncccc2o1)c1ccc(F)cc1
-39% | O=C(NCCc1ccc(Cl)cc1)c1ccc2c(c1)nc1n2CCOC1
-1% | O=C(NCc1ccco1)c1ccc2c(c1)N(Cc1ccc(F)cc1)C(=O)c1ccccc1S2=O (stereo not drawn)
-10% | CCOC(=O)c1c(C)oc2c(Cl)cc(NS(=O)(=O)c3ccc(Cl)c(C)c3)cc12
-18% | Cc1cc(C)c(S(=O)(=O)N2CCN(Cc3ccc4c(c3)OCO4)CC2)cc1C
-1%[7.66 µM] | O=C1OC2(CCCCC2)CC2=C1C1O[C@](CCCCN3C(=O)c4ccccc4C3=O)(Cc3ccccc31)O2
-4% | CCc1nn(-c2ccccc2)c2nc(-c3ccccc3OC)c3cc(OC)c(OC)cc3c12
3% | Cc1c(CNC2CCCCCC2)c(C(=O)O)c(C)n1Cc1cccc(Cl)c1
-3% | Cc1cccc(-c2c3c(=O)n(C)c(=O)n(C)c3c3cnc4ccccc4n23)c1
-21% | COc1ccc(CNC(=O)CC2N=C3c4ccccc4N=C(SCC(=O)Nc4ccc(N(C)C)cc4)N3C2=O)cc1 (stereo not drawn)

# Entries above containing an aryl methoxy group:
miR-21 reporter | SMILES
14% | COc1ccc(C(=O)c2cn(Cc3ccccc3)c3ccccc3c2=O)cc1OC
12% | COc1ccc(S(=O)(=O)NCCS(=O)(=O)N2CCN(c3ccccc3)CC2)cc1OC
2% | COc1ccc(N2C(=O)CS(=O)(=O)C23C(=O)N(Cc2ccccc2)c2ccccc23)cc1 (stereo not drawn)
-7% | COc1ccccc1CNC(=O)Cn1ncc2c(C)n(Cc3ccccc3Cl)c(C)c2c1=O
0% | COc1ccc(NC(=O)CN2CCN(Cc3ccccc3Cl)S2(=O)=O)cc1Cl
5% | COc1cc(NC(=O)CSc2nc3ncccc3o2)cc(OC)c1
0% | COc1cccc(C(=O)c2sc(Nc3ccc(C)cc3C)c(S(=O)(=O)c3ccccc3)c2N)c1
2% | COc1ccc(N2CCN(C(=O)Cn3c(-c4cccs4)cc4ccccc43)CC2)cc1
-4% | CCc1nn(-c2ccccc2)c2nc(-c3ccccc3OC)c3cc(OC)c(OC)cc3c12
-21% | COc1ccc(CNC(=O)CC2N=C3c4ccccc4N=C(SCC(=O)Nc4ccc(N(C)C)cc4)N3C2=O)cc1 (stereo not drawn)

# The results go on:
miR-21 reporter | SMILES
-10% | COc1ccccc1C(=O)Nc1cccc(OCc2cc(=O)n3ccccc3n2)c1
-8% | Cc1cccc(-c2nc(CCNC(=O)c3ccc(Br)o3)cs2)c1
0% | CCN(C(=O)CSc1ncc2c(n1)-c1cc(Cl)ccc1N(Cc1ccccc1)S2(=O)=O)c1cccc(C)c1
16% | COc1ccccc1CCNC(=O)C(=O)NCC(c1cccs1)S(=O)(=O)c1ccc(F)cc1 (stereo not drawn)
1% | Cc1cccc(NC(=O)CSc2nc(-c3ccco3)nc3cc(=O)[nH]n23)c1
0% | COc1cccc(CSc2nc(-c3ccccc3OC)nc3c2Cc2c(CO)cnc(C)c2O3)c1
-2% | CCOC(=O)c1c(C)[nH]c(CCC(=O)NCc2cc(Br)ccc2OC)c1C
-3% | CCOC(=O)N1CCc2c(sc(NCc3cc(OC)c(OC)cc3OC)c2C(=O)Nc2ccc(OCC)cc2)C1
6% | CCn1c(=O)cc(OCC(=O)NCc2ccccc2Cl)c2ccccc21
1% | CCOc1ccccc1CNC(=O)c1ccc2c(c1)sc1nc(-c3ccccc3)cn12
-6% | COc1ccccc1NC(=O)Cn1c(SCC(=O)Nc2ccc(F)cc2)nc2ccccc21
2% | O=C(CSc1nc2c([nH]c3ccccc32)c(=O)n1-c1ccc(F)cc1)N1CCCCCC1
-6% | O=C(NCc1ccccc1)C(=O)NCC(c1ccco1)S(=O)(=O)c1cccs1 (stereo not drawn)
-1% | COc1ccc(S(=O)(=O)N(Cc2nc(-c3cccc(C)c3)no2)C2CCCCC2)cc1
-2% | COc1ccc(-c2cc(-c3ccccc3)nc3c2COc2ccccc2-3)cc1
-6% | CCN(CC)S(=O)(=O)c1ccc2nc(NC(=O)c3ccccc3OC)sc2c1
-3% | Cc1oc2ncn(CC(C)C)c(=O)c2c1C(=O)NCCCN1CCCCC1C (stereo not drawn)
-3% | CC1(C)CC(=O)c2cc(C(=O)Nc3ccccc3Cl)c(=O)n(-c3ccc(Cl)cc3)c2C1
9% | CCn1c(=O)c2cc(C(=O)NC3CCCCCC3)sc2c2ccccc21
-2% | Cc1ccc(CNC(=O)C2CCCN(c3ncnc4onc(-c5ccc(F)cc5)c34)C2)cc1 (stereo not drawn)
-38% | Cc1ccc(Nc2ncnc3c2nc2n3CCCC2)cc1F
-1% | CCn1c(=O)c2sccc2n2c(CCCC(=O)N3CCN(c4cc(C)ccc4C)CC3)nnc12
0% | CNS(=O)(=O)c1cn(CC(=O)N2CCN(c3cc(C)ccc3C)CC2)cc1S(=O)(=O)NC
-2% | COc1ccc(NC(=O)CCc2nnc3n(Cc4ccc(C)cc4)c(=O)c4ccccc4n23)cc1
3% | Cc1ccc(C(=O)OCc2cc(=O)n3nc(-c4cccs4)sc3n2)cc1
-1% | CCOc1ccc(CCNC(=O)c2cc3c(-c4ccccc4F)nn(C)c3s2)cc1
-2% | COc1cc(C(=O)Nc2nc3nc(-c4ccccc4)cc(=O)n3[nH]2)cc(OC)c1OC
-16% | CCc1ccccc1NC(=O)c1ccc2c(c1)CCCN2S(C)(=O)=O
-1% | COc1ccc(OC)c(NC(=O)Cn2c(=O)oc3cc(S(=O)(=O)NCc4ccccc4)ccc32)c1
0% | CCOc1ccc(S(=O)(=O)n2nc(C)c(S(=O)(=O)N3CCCCCC3)c2C)cc1
-1% | COc1ccc(CNC(=O)Cn2nc(C)c3c(C)n(-c4ccccc4)nc3c2=O)cc1OC
4% | COCCN1Cc2cccc(C(=O)Nc3ccc(C(=O)OC)cc3)c2C1=O
? | Cc1cc2c(n1-c1ccc(C(=O)NCc3cccc(Br)c3)cc1)CCC(C)C2 (stereo not drawn)
-1% | COc1ccc(-c2nc(CNC(=O)NC3CCCCC3)c(C)o2)cc1
3% | Cc1ccc(C)c(N(C)C(=O)c2cc3c(s2)-c2ccccc2OC3)c1
9% | CCc1cccc(NC(=O)CN2C(=O)COc3ccc(S(=O)(=O)N4CCC(C)CC4)cc32)c1
3% | Cc1cccc(C(=O)Nc2nnc(S(=O)(=O)N3CCCc4ccccc43)s2)c1
28% | O=C(NCCCN1CCN(c2ccccc2F)CC1)c1ccc2nc(Cc3ccccc3)oc2c1
1% | O=C(NCCc1ccccc1)c1ccc2c(c1)CCN2S(=O)(=O)c1ccc(Br)cc1
3% | Cc1cccc(NC(=O)C(=O)NCC(c2ccc3c(c2)OCO3)N2CCN(c3ccccc3)CC2)c1 (stereo not drawn)
-19% | CCOc1ccc(NC(=O)c2c(NCc3ccc(C)o3)sc3c2CCCCC3)cc1
13% | COc1ccc(CNC(=O)c2cc3c(=O)n(Cc4ccco4)ccc3nc2C)cc1
1% | CCN(c1ccccc1)S(=O)(=O)c1ccc(NC(=O)c2cc(=O)c3cc(C)c(C)cc3o2)cc1
-1% | CCOc1ccc(N2CC(NC(=O)C3CC3)CC2=O)cc1 (stereo not drawn)
-1% | CCc1nc(SCc2cc(=O)c3cc(F)ccc3[nH]2)n[nH]1
-1% | COc1ccc(C2CC(c3ccc(C)cc3)=NN2C(=O)CCC(=O)O)cc1OC (stereo not drawn)
26% | Cc1ccc(N2C(=O)CCSC23C(=O)N(Cc2ccccc2)c2ccccc23)cc1F (stereo not drawn)
-1% | Cc1cc(NC(=O)CCS(=O)(=O)c2cc(Br)cc3c2N(C(=O)C2CC2)CC3)ccc1Br
? | Cc1ccccc1CSc1cn(CCNC(=O)c2cccs2)c2ccccc12
0% | O=C(CSc1ncc(S(=O)(=O)c2ccc(Br)cc2)c(=O)[nH]1)NCc1ccc(Cl)cc1
9% | Cc1ccc(S(=O)(=O)N2CCCc3cc(NC(=O)c4ccc(C(F)(F)F)cc4)ccc32)cc1
25% | CC(C)(C)c1ccc(Cn2c(Cc3ccccc3)nc3ccccc32)cc1
-8% | CCOc1ccc(-n2c(=O)c3c4c(sc3n(CC(=O)NC(C)CC)c2=O)CCC4)cc1 (stereo not drawn)
0% | COc1ccc(OC)c(NC(=O)C(C)n2c(=O)cc(C)c3c(C)nn(-c4ccccc4)c32)c1 (stereo not drawn)
7% | CCCn1c2ccccc2c2cnn(CC(=O)Nc3ccccc3OC)c(=O)c21
-34% | CCN(CC)CCNC(=O)c1ccc(Cn2c(SCc3ccccc3)nc3cccnc32)cc1
7% | O=C(Cn1nc(Cc2ccncc2)c2ccccc2c1=O)Nc1cccc(C(F)(F)F)c1
1% | Cc1ccc(Cl)cc1NC(=O)Cn1nnc2sc3c(c2c1=O)CCC(C(C)(C)C)C3 (stereo not drawn)
-17% | COc1ccc(OC)c2sc(N(CCCN(C)C)C(=O)c3ccco3)nc12
-19% | COc1cc2c(cc1OC)n(CC(=O)Nc1ccc(C)cc1C)c(=O)n1nc(-c3ccccc3)nc21

# Exported with each value named: two of the compounds above
O=C(CSc1ncc(S(=O)(=O)c2ccc(Br)cc2)c(=O)[nH]1)NCc1ccc(Cl)cc1
  miR-21 reporter: 0%
Cc1ccc(S(=O)(=O)N2CCCc3cc(NC(=O)c4ccc(C(F)(F)F)cc4)ccc32)cc1
  miR-21 reporter: 9%

# Next entries
miR-21 reporter | SMILES
0% | CCC(=O)N1CCc2cc(Br)cc(S(=O)(=O)N3CCC(C(=O)Nc4ccccc4CC)CC3)c21
3% | COc1cccc(-c2nc(S(=O)(=O)c3ccc(C)cc3)c(N3CCCCCC3)o2)c1
27% | COc1ccc(CCNC(=O)CCc2c(C)nc3cc(-c4ccccc4OC)nn3c2C)c(OC)c1
24% | COc1ccc(C2c3cc(OC)c(OC)cc3CC(=O)N2c2ccc(C)c(F)c2)cc1 (stereo not drawn)
-15% | Oc1c(C(c2ccc(Cl)cc2)N2CCCC2)sc2nc(-c3ccco3)nn12 (stereo not drawn)
-5% | COC(=O)C1=C(C)NC(=O)C1(NC(=O)c1ccccc1C)C(F)(F)F (stereo not drawn)
13% | COc1cc(NC(=O)CN(C)S(=O)(=O)c2ccc3[nH]c4c(c3c2)CCCC4)cc(OC)c1OC
-28% | Cc1cccc(C(=O)NNc2ncnc3c2cnn3-c2ccc(C)cc2C)c1
2% | CCOC(=O)c1c(S(=O)(=O)N2CCCC(C(=O)N3CCN(c4ccccc4)CC3)C2)c(C)n(C)c1C (stereo not drawn)
25% | COc1ccc(-c2cnc(C)o2)cc1S(=O)(=O)Nc1ccc(C)c(F)c1
1% | CCc1cccc(NC(=O)c2ccc3c(=O)n4nc(Nc5ccccc5OC)sc4nc3c2)c1
0% | CCOCCCNC(=O)C1CCN(c2cc(C)nc3c(-c4ccc(Cl)cc4)c(C)nn23)CC1
1% | COc1ccccc1CNC(=O)C(NS(=O)(=O)c1cccs1)C(C)C (stereo not drawn)
-6% | CCCN1CCN(CCCNC(=O)c2ccc3c(c2)sc2nc(-c4ccc(C)cc4)cn23)CC1
0% | COc1ccc2c(C)c(CC(=O)NCCc3ccccc3)c(=O)oc2c1OC
0% | CCc1cccc(C)c1NC(=O)Nc1csc2c1CCCC2
0% | COc1ccc(-n2nc(C(=O)Nc3cc(C)ccn3)c3c4ccccc4n(C)c3c2=O)cc1Cl
0% | Cc1ccc(-c2nnc(Nc3ccc(Cl)c(Cl)c3)c3ccccc23)cc1S(=O)(=O)N(C)C
1% | COc1ccc(C2=Nc3ccccc3NC(c3cccs3)=N2)cc1
-19% | O=C(CSc1ccc2nc(-c3ccccc3)cn2n1)Nc1ccccc1C(F)(F)F
3% | COc1ccc(Cn2c(=O)c3oc4ccccc4c3n(Cc3ccc(F)cc3)c2=O)cc1
-5% | Cc1cc(C)cc(NC(=O)Cc2c(C(=O)O)c(C)cn2C)c1
-8% | Cc1nc(-c2ccc(S(=O)(=O)N(C)Cc3ccccc3)cc2)co1
